Mtb MenB inh: Mtb MenB enzyme inhibition. AID 540299. inhibition, %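 (about 12 µg/mL by stock and volumes)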. P9WNP5. MenB enzyme assay, absorbance read-out; some hits fall short of the stated cut. 100,000 compounds, 0.43% hits;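 active means mean of two replicates above 30%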;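 further: 0% = no compound and 100% = wells with inactive enzyme; the first replicate is given; strong numbers were not always called active; inactives centre near -10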
MbtI inh: MbtI salicylate synthase inhibition. purified MbtI enzyme, fluorescence intensity read-out. inhibition, %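 (about 17 µg/mL by stock and volumes)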. AID 493033. 100,000 compounds, 0.89% hits;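 active means above 50% in both replicates, above 80% if mildly self-fluorescent; inactive means the rest, strongly fluorescent compounds included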;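 further: 0% = mean of negative and 100% = mean of positive controls; one replicate is shown; some compounds called inactive have numbers as strong as hits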
Target sequence (P9WFX0 whole entry, looked up): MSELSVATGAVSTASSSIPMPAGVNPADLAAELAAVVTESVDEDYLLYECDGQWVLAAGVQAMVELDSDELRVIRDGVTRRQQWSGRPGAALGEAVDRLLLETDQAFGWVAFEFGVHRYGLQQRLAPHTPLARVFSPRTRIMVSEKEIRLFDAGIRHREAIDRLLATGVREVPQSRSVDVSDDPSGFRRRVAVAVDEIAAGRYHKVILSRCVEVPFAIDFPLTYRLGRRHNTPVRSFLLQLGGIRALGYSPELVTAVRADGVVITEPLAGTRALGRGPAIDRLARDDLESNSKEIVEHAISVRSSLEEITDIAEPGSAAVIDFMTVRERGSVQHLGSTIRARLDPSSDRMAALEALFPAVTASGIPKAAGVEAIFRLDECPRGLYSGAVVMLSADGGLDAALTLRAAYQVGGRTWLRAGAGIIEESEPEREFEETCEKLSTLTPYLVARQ
PV pol inh: poliovirus RNA polymerase inhibition. P03300. poliovirus polymerase elongation, fluorescence polarization; stronger effect = lower value. % elongation, % (compound at 16.7 µg/mL). 150,000 compounds, 0.66% hits. AID 588519; in the data active means % elongation below about 90%; further: some results filed as inactive read as strong as hits
Target sequence (P03300 1749-2209 limits assumed): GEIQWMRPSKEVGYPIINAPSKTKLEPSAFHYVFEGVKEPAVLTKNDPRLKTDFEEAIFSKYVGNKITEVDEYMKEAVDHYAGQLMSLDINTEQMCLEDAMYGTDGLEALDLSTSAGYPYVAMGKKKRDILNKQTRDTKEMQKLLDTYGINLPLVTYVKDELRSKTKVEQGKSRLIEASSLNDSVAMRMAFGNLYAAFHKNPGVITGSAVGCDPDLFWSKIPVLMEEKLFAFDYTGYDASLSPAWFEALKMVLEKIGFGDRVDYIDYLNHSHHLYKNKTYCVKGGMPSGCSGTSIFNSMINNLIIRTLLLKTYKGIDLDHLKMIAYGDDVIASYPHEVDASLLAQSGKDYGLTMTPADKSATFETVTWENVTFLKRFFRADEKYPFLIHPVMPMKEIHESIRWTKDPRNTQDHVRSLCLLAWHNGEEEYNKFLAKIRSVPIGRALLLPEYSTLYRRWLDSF
PV pol inh intensity: also measured in PV pol inh; calls as there; % elongation; measured here: total intensity read-out; formula for this scale not given here;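 total fluorescence in place of polarization; lower means less elongation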
* hit, by the source's call; . = no result given; & = joins results of further samples.

SMILES	Mtb MenB inh	MbtI inh	PV pol inh	PV pol inh intensity
CC12CC(c3ccccc3O1)C(C(=O)O)C(=O)N2CCC1=CCCCC1 (stereo unspecified)	-71	2	106	101
CC(=O)OC(C(=O)NCc1ccc2c(c1)OCO2)c1ccccc1Cl (stereo unspecified)	11	-10	100	101
COc1ccc(-c2cc(C(F)(F)F)nc(SCC(=O)N(C)Cc3cn(C)nc3C)n2)cc1OC	-3	-41	101	101
CCOC(=O)N1CCC(NC(=O)c2ccc(Cn3c(=O)[nH]c4cc(OCC)c(OCC)cc4c3=O)cc2)CC1	-8	23	99	99
COc1cccc(NS(=O)(=O)c2ccc3c(c2)CC(C)N3C(=O)C2CC2)c1 (stereo unspecified)	-20	-10	102	103
N#Cc1c(N(C(=O)/C=C/c2ccco2)C(=O)/C=C/c2ccco2)oc(-c2ccco2)c1-c1ccco1	-16	4	89*	100*
O=c1c(Oc2ccccc2)c(C(F)(F)F)oc2c(O)c(O)ccc12	-31	-5	101	104
CCCN(CCC)C(=O)Cn1c(SCc2cccc(Cl)c2)nc2ccncc21	-28	-10	104	106
COC(=O)C1=C(C)N(c2ccccc2)/C(=C/c2cccc3ccccc23)C1=O	-18	.	101	101
COc1ccccc1N1CCN(C(=O)c2cccc(Oc3ccccc3)c2)CC1	.	-15	101	98
CCc1ccc(NC(=O)c2ccc(F)c(S(=O)(=O)NCC3COc4ccccc4O3)c2)cc1 (stereo unspecified)	-20	-4	100	105
COc1ccc(C2=C3NN=C(N)N3NN2)cc1	-188	.	102	102
Cc1ccc2nc(SCC(=O)N3CCc4ccccc43)nc(=O)n2c1	-8	38	103	108
O=C(c1c[nH]c2ccccc2c1=O)N(Cc1ccccc1)Cc1ccccc1	-7	.	102	103
CCOC(=O)c1ccccc1NC(=O)c1ccncc1	17	7	100	102
O=C(O)CCn1nc(-c2cccs2)oc1=O	-5	103	105	107
CCc1ccc(C2c3c(-c4ccccc4O)n[nH]c3C(=O)N2CCO)cc1 (stereo unspecified)	-19	4	102	104
C1=C(c2cc3ccccc3o2)SC2=NCCN12	-15	-9	98	94
Cc1cc(C)c(C(=O)c2ccccc2)cc1C(=O)c1ccccc1	-39	6	104	105
CN(CC1COc2ccccc2O1)C(=O)C1(c2ccccc2)CC1 (stereo unspecified)	0	-9	101	106

6 compounds drawn at random from those above, as already listed:
SMILES	Mtb MenB inh	MbtI inh	PV pol inh	PV pol inh intensity
CCc1ccc(C2c3c(-c4ccccc4O)n[nH]c3C(=O)N2CCO)cc1 (stereo unspecified)	-19	4	102	104
Cc1cc(C)c(C(=O)c2ccccc2)cc1C(=O)c1ccccc1	-39	6	104	105
O=C(O)CCn1nc(-c2cccs2)oc1=O	-5	103	105	107
Cc1ccc2nc(SCC(=O)N3CCc4ccccc43)nc(=O)n2c1	-8	38	103	108
C1=C(c2cc3ccccc3o2)SC2=NCCN12	-15	-9	98	94
CCOC(=O)c1ccccc1NC(=O)c1ccncc1	17	7	100	102

Later entries:
SMILES	Mtb MenB inh	MbtI inh	PV pol inh	PV pol inh intensity
CCC(O)c1nc2ccccc2n1CCOc1ccccc1 (stereo unspecified)	-14	-3	105	106
COc1ccc2[nH]c(=O)c(CN(Cc3cccs3)C(=O)c3cccs3)cc2c1	-13	91	97	103
CCN1CCN(c2ccc(NC(=O)C(C)C)cc2)CC1	-6	.	106	98
CC1CC(=O)NN=C1c1ccc(N)c(N)c1 (stereo unspecified)	-37	19	101	100
O=C(NCCc1nc2ccccc2[nH]1)Nc1ccccc1	-12	.	104	104
CCN(CC)C(=O)C1=C(C)N=C2SC(C#N)=C(N)N2C1c1cc(OC)ccc1OC (stereo unspecified)	-241	29	106	114
O=C(C1=C(O)C(=O)N(c2ccccn2)C1c1ccccc1)c1cccs1 (stereo unspecified)	-38	.	106	107
Cc1ccc(C2=Nn3c(nnc3C3CCCCC3)SC2C)cc1 (stereo unspecified)	-25	50	96	97
CC1=CC(C)(C)N(C(=O)Cc2ccccc2)c2ccccc21	-29	-1	101	103
O=c1[nH][nH]c2ccc(Cl)cc12	-7	19	100	101
CC1=CC(=O)C2=C(C)C[C@H](O)[C@@H]3[C@H](OC(=O)[C@H]3C)[C@@H]12	-12	-13	99	97
O=C(O)/C=C1/C(=O)Nc2ccccc21	-17	97	94	98
CC1CC(OC(=O)c2ccccc2O)CC(C)(C)C1 (stereo unspecified)	1	6	98	101
S=c1n(CN2CC=C(c3ccccc3)CC2)nc2sc3ccccc3n12	-28	0	101	93
Clc1ccc(OCc2noc(COc3ccc(Cl)cc3Cl)n2)c(Cl)c1	2	0	102	104
COc1ccc(N2CCN(C(CNS(=O)(=O)c3c(C)cc(C)cc3C)c3ccco3)CC2)cc1 (stereo unspecified)	-3	-1	103&101	113&102
Cc1nnc(NC(=O)C(C)N2CCCC2)s1 (stereo unspecified)	3	-1	102	100
Cc1ccccc1OCCn1c(=N)n(CCO)c2ccccc21	4	12	103	103
CCOc1ccc(C(C)(C)C)cc1S(=O)(=O)n1c(C)nc2ccccc21	-5	-11	102	102
CCN(CC)S(=O)(=O)c1ccc2oc(Sc3cc(C)c(C#N)c4nc5ccccc5n34)nc2c1	-30	3	108	162

Entries from the list above with a cyano group, in the order listed:
SMILES	Mtb MenB inh	MbtI inh	PV pol inh	PV pol inh intensity
N#Cc1c(N(C(=O)/C=C/c2ccco2)C(=O)/C=C/c2ccco2)oc(-c2ccco2)c1-c1ccco1	-16	4	89*	100*
CCN(CC)C(=O)C1=C(C)N=C2SC(C#N)=C(N)N2C1c1cc(OC)ccc1OC (stereo unspecified)	-241	29	106	114
CCN(CC)S(=O)(=O)c1ccc2oc(Sc3cc(C)c(C#N)c4nc5ccccc5n34)nc2c1	-30	3	108	162

(listing goes on)
SMILES	Mtb MenB inh	MbtI inh	PV pol inh	PV pol inh intensity
Nc1nnc(-c2cccs2)c(=O)n1N	-23	122	100	98
COc1ccc(N2CCN(CC(O)c3ccc4c(c3)CCN4C(C)=O)CC2)cc1 (stereo unspecified)	-10	8	99	100
O=P1(N2CCN(c3ccc(Cl)cc3)CC2)COc2ccccc2OC1	-8	-4	97	92
CCOC(=O)c1cc(C(=O)OCC)c(C)nc1C	-7	.	101	99
O=S1(=O)N=C2CCCCCN2C(c2ccc(N3CCOCC3)cc2)N1 (stereo unspecified)	-14	1	104	108
O=C1c2ccccc2C(=O)N1CSc1nnc(Nc2ccccc2)s1	-8	-2	104	105
NC(=S)c1sc(=S)n(-c2ccccc2)c1N	-145	35	99	103
O=C(O)c1ncc(C(F)(F)F)cc1Cl	-11	-4	102	100
O=C(Nc1ccc2c(c1)OCCO2)C1CCN(c2ccc(-c3cccs3)nn2)CC1	-15	-15	100	102
CC(C)c1ccc2occ(CC(=O)Nc3ccc(S(N)(=O)=O)cc3)c2c1	-32	-5	104	103
O=C(/C=C/c1cccs1)NC(=S)N1CCCCC1	-2	-1	95	100
COC(=O)C1=C(C)NC(C)=C(C(=O)OC)C1C(=O)OCC(=O)c1ccc2c(c1)NC(=O)CO2	10	13	103	97
CCOc1ccc(C(=N/O)/C(C)=N/O)cc1	9	3	100	103
O=C1CN(C(=O)CSc2ncc(C(F)(F)F)cc2Cl)c2ccccc2N1	-8	5	99	93
C/C=C1/C(C)C(C(F)(F)F)(C(F)(F)F)C(C#N)=C(N)N1c1ccc(C(N)=O)cc1 (stereo unspecified)	-24	.	103	99
CC(C)(C#N)C(O)c1ccccc1 (stereo unspecified)	-3	-7	100	102
Cn1cnc(S(=O)(=O)Nc2n[nH]c(=S)s2)c1	14	91	98	99
Cc1nn(C)c2c1c(C(F)(F)F)cc(=O)n2CC(=O)c1c(C)n(C)c2ccccc12	15	-2	101	100
Cc1ccccc1OCC(=O)Nc1ccc(NC(=O)c2cccs2)cc1	11	3	101	106
Cc1cccc(NCN2C(=O)S/C(=C\c3cccc(F)c3)C2=O)c1	-10	.	94	91

Results in MbtI inh, PV pol inh and PV pol inh intensity, for some of the entries so far:
molecule	MbtI inh	PV pol inh	PV pol inh intensity
O=C1CN(C(=O)CSc2ncc(C(F)(F)F)cc2Cl)c2ccccc2N1	5	99	93
Cc1cccc(NCN2C(=O)S/C(=C\c3cccc(F)c3)C2=O)c1	.	94	91
COC(=O)C1=C(C)NC(C)=C(C(=O)OC)C1C(=O)OCC(=O)c1ccc2c(c1)NC(=O)CO2	13	103	97
Cc1ccccc1OCC(=O)Nc1ccc(NC(=O)c2cccs2)cc1	3	101	106
Cc1nn(C)c2c1c(C(F)(F)F)cc(=O)n2CC(=O)c1c(C)n(C)c2ccccc12	-2	101	100
CC(C)(C#N)C(O)c1ccccc1 (stereo unspecified)	-7	100	102

(next part)
SMILES	Mtb MenB inh	MbtI inh	PV pol inh	PV pol inh intensity
CCOC(=O)c1[nH]c(CSc2cccc[n+]2[O-])c(C(=O)OCC)c1C	-30	37	66*	73*
Cc1sc2ncnc(-n3cnc4ccccc43)c2c1C	-25	-11	107	112
CC(C)(NO)C(=O)c1cc(C(C)(C)C)c(O)c(C(C)(C)C)c1	-15	.	110	103
Cc1ccc(N(c2ccc(C)cc2)c2cccnc2)cc1	-62	.	101	102
O=C(CN1CCN(c2ccccc2)CC1)Nc1ccccc1	-28	-9	102	105
CN(C)c1ccc(C2NCC(CSc3nc(-c4cccs4)cc(C(F)(F)F)c3C#N)O2)cc1 (stereo unspecified)	-8	.	108	112
CCOC(=O)c1ccc2[nH]c3c(c2c1)CN(C)CC3	-16	7	102	103
CN1CCN(C(=O)CSc2nc3ccccc3nc2SCC(=O)N2CCN(C)CC2)CC1	-4	8	103	103
C[C@@H]1CC2(CCCN2Cc2ccccc2)C[C@H]1C	-14	.	102	109
COC(=O)CCC(=O)c1cc(C(C)(C)C)sc1C(C)(C)C	-18	4	104	107

Taken from above:
PV pol inh with C[C@@H]1CC2(CCCN2Cc2ccccc2)C[C@H]1C stands at 102
Mtb MenB inh with Cc1sc2ncnc(-n3cnc4ccccc43)c2c1C stands at -25
PV pol inh with Cc1ccc(N(c2ccc(C)cc2)c2cccnc2)cc1 stands at 101
PV pol inh intensity with CC(C)(NO)C(=O)c1cc(C(C)(C)C)c(O)c(C(C)(C)C)c1 stands at 103
MbtI inh with COC(=O)CCC(=O)c1cc(C(C)(C)C)sc1C(C)(C)C stands at 4
PV pol inh with CCOC(=O)c1ccc2[nH]c3c(c2c1)CN(C)CC3 stands at 102

Additional entries follow.
SMILES	Mtb MenB inh	MbtI inh	PV pol inh	PV pol inh intensity
Cc1onc(-c2ccccc2Cl)c1C(=O)OCCN1CCCC1=O	-2	26	97	99
CC1(C)OC(=O)C2(C(=O)O1)C1C3C4CC5C6C4C1C6C2C53 (stereo unspecified)	2	-1	98	102
Cc1cc(=O)c(C(=O)O)nn1-c1ccccc1	7	10	98	100
CCOC(=O)c1[nH]c(C)c(CN(C(C)=O)c2ccc(OCC)cc2)c1C	-11	-8	102	100
O=C1CC2(CCN(S(=O)(=O)c3ccccc3)CC2)Oc2ccccc21	0	78	98	105
CC1=C(c2ccc(F)cc2)S(=O)(=O)N=C1Nc1ccc(C)cn1	-7	67	101	104
C=CCN1C(=O)SC(CC(=O)O)C1=O (stereo unspecified)	-60	-3	102	101
NCc1ccc2[nH]c(=O)[nH]c2c1	-34	-5	101	100
Cc1noc(C)c1C(=O)OCCCCN1C(=O)c2ccccc2C1=O	6	1	105	103
O=C(c1cc(-c2ccccc2)n[nH]1)N1CCN(c2cccc(C(F)(F)F)c2)CC1	-12	7	101	106
O=C(O)C1OC(C(=O)O)C2C1C(F)(F)C2(F)F (stereo unspecified)	-16	20	97	96
Cc1ccccc1Cn1cnc2ccccc2c1=O	-17	.	105	111
CC(C)OC(=O)c1ccc(-n2cccn2)cc1	-21	10	99	100
COC(=O)c1c(C)oc(C)c1S(=O)(=O)NCc1ccc(OC)cc1	-18	2	102	110
N#CCOC(=O)c1cc(=O)c2ccccc2o1	2	-13	74*	74*
Cc1ccc(S(=O)Cc2nc(-c3ccc(C(=O)N4CCOCC4)cc3)oc2C)cc1 (stereo unspecified)	-6	19	100	103
O=C1N(c2ccccc2)C(=O)N(c2ccccc2)C2c3ccccc3C=CN12 (stereo unspecified)	-60	-1	102	99
O=C(OCC1COc2ccccc2O1)c1c(F)cccc1F (stereo unspecified)	-27	0	101	99
Cc1nn(-c2ccccc2)c2c1P(=S)(N1CCOCC1)OC(c1ccccc1)=N2 (stereo unspecified)	4	59	88*	84*
O=C1CSc2sc(=S)sc2S1	-121	47	88*	89*
COc1cc(OC)nc(/N=C/NO)n1	1	-6	99	111
O=C1NCCN1CCNS(=O)(=O)c1ccc2ccccc2c1	-10	.	98	109
c1cc2n[nH]nc2cn1	-32	9	99	92
Fc1nc(F)c(F)c(SC(=S)N2CCOCC2)c1F	11	.	100	108
C(=N\n1cnnc1)/c1ccc(Nc2ccccc2)cc1	.	-24	101	108
Nc1nc(SC#CC(F)(F)F)ns1	-19	51	85*	71*
O=S(=O)(c1ccccc1)c1nnn2c1nc(N1CCCC1)c1cc(Cl)ccc12	-25	-7	104	98
c1ccc(CN2CCN(Cc3ccccc3)C2c2c[nH]c3ccccc23)cc1	-2	3	102	100

Screening results (PubChem)

An unsorted share of the library (roughly 2% active in at least one column).
